# Vaccinia stage = Vaccinia orthopox stage-specific inhibition; Vaccinia-infected cells, mCherry/Venus stage reporter fluorescence; hits give low values; some inactives read as strong as hits; actives 0.01% (n = 89,000); activity change (mCherry), % (no concentration beside the values); AID 1053133;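 active = mCherry past -33% and 40 or more points under the early reporter, replicates agreeing; inconclusive = past -33% without that gap or agreement; tested in A549 cells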;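 note: scaled between vehicle wells and reference inhibitor wells; 23 nL library stock went into each well; one replicate is shown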
# Vaccinia stage Venus = second read-out of Vaccinia stage, no call of its own (marks repeat the call); activity change (Venus), %; measured here: Venus reporter, other viral stage;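 negative = less Venus signal; first of two replicates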
# An asterisk follows results filed as active; ? = inconclusive; / = no result given; & = joins results of further samples.
SMILES,Vaccinia stage,Vaccinia stage Venus
CC(C)NC(=O)N(C)C[C@@H]1OCCCC[C@@H](C)Oc2ccc(NS(C)(=O)=O)cc2C(=O)N([C@@H](C)CO)C[C@H]1C,23,13
COc1ccc(NC(=O)Nc2ccc3c(c2)C(=O)N([C@@H](C)CO)C[C@H](C)[C@@H](CN(C)C)O3)cc1,4,3
CCC(=O)N1[C@H](CO)[C@H]2c3ccccc3N(C(=O)Nc3cccc(Cl)c3)C[C@H]21,-9,-7
CN1C(=O)c2cc(NC(=O)C3CCCC3)ccc2OC[C@@H]2O[C@H](CC(=O)Nc3ccccc3)CC[C@@H]21,-13,-7
C[C@@H]1CN([C@H](C)CO)C(=O)c2cc(NS(=O)(=O)c3ccccc3)ccc2O[C@H]1CN(C)S(=O)(=O)c1ccccc1,-2,-3
COc1cccc(S(=O)(=O)N[C@H]2CC[C@H](CCNC(=O)Nc3cc(F)ccc3F)O[C@H]2CO)c1,-3,6
C[C@@H]1CN([C@H](C)CO)C(=O)Cc2cc(NS(=O)(=O)c3cn(C)cn3)ccc2O[C@H]1CN(C)S(=O)(=O)c1ccc(F)cc1,13,9
CC(C)NC(=O)Nc1ccc2c(c1)C(=O)N([C@H](C)CO)C[C@@H](C)[C@@H](CN(C)Cc1ccccc1)O2,7,-2
Cc1ccc(-c2ccc([C@@H]3[C@H](CO)N4C(=O)CN(C(=O)Nc5ccc(F)cc5)C[C@@H]34)cc2)cc1,-27,-36
Cc1noc(C)c1NC(=O)N(C)C[C@@H]1OCCCC[C@@H](C)Oc2ccc(NC(=O)Nc3ccc4c(c3)OCO4)cc2C(=O)N([C@@H](C)CO)C[C@H]1C,18,10
CC(C)NC(=O)N(C)C[C@H]1Oc2c(NC(=O)C3CCCCC3)cccc2C(=O)N([C@H](C)CO)C[C@H]1C,1,2
C[C@H](CO)N1C[C@H](C)[C@@H](CN(C)Cc2ccc(C(=O)O)cc2)Oc2c(NC(=O)Nc3ccc4c(c3)OCO4)cccc2C1=O,20,16
O=C(Nc1ccc(F)cc1)N1C[C@H]2[C@@H](c3ccccc31)[C@@H](CO)N2Cc1cocn1,-3,7
C[C@@H]1CN([C@H](C)CO)C(=O)c2cc(C#CC3(O)CCCC3)cnc2O[C@@H]1CN(C)C,12,7
Cc1ccc(S(=O)(=O)N(C)C[C@H]2Oc3ccc(NC(=O)c4ccncc4)cc3C(=O)N([C@H](C)CO)C[C@H]2C)cc1,0,-1
C[C@@H]1CN([C@H](C)CO)C(=O)c2cc(NC(=O)Nc3ccccc3)ccc2O[C@@H]1CN(C)C(=O)Nc1ccccc1,10,9
C[C@@H]1CCCCO[C@H](CN(C)Cc2ccc(Cl)c(Cl)c2)[C@@H](C)CN([C@H](C)CO)C(=O)c2cc(NC(=O)Cc3ccccc3)ccc2O1,-34,-22
O=C(C1CCCC1)N1CC2(C1)[C@@H](c1ccccc1)[C@@H](CO)N2CCC(F)(F)F,-2,3
CO[C@@H]1CN(C)C(=O)c2cc(NC(=O)C3CCCCC3)ccc2OC[C@@H](C)N(C(=O)c2ccccc2)C[C@@H]1C,6,1
C[C@H]1CN([C@@H](C)CO)C(=O)c2cc(-c3cccc(C#N)c3)cnc2O[C@@H]1CN(C)Cc1ccncc1,1,8
CO[C@H]1CC[C@H]2CCOc3c(C#N)cccc3C(=O)N(C)C[C@H](OC)[C@@H](C)C(=O)N(C)C[C@H]1O2,19,10
C[C@@H]1CN([C@@H](C)CO)C(=O)c2cc(/C=C/c3ccccc3)cnc2O[C@H]1CN(C)C(=O)c1cccnc1,17,-1
CCC(=O)N(C)C[C@H]1Oc2cc(C#CCN(C)C)ccc2S(=O)(=O)N([C@@H](C)CO)C[C@H]1C,23,11
O=C(Nc1ccccc1)N1C[C@H]2[C@@H](c3ccccc31)[C@H](CO)N2C(=O)c1ccncc1,12,14
CCCNC(=O)[C@@H]1[C@@H](CO)[C@@H]2Cn3c(ccc(-c4cccnc4)c3=O)[C@@H]2N1Cc1cocn1,7,-7
COc1ccc(NC(=O)Nc2ccc3c(c2)C(=O)N([C@@H](C)CO)C[C@H](C)[C@H](CN(C)C(=O)NC2CCCCC2)O3)cc1,11,-4
CC(C)COC(=O)N(C)C[C@@H]1OCc2cnnn2CCCC(=O)N([C@H](C)CO)C[C@H]1C,3,7
CC(C)NC(=O)N(C)C[C@@H]1Oc2ncc(C3=CCCCC3)cc2C(=O)N([C@@H](C)CO)C[C@H]1C,21,5
C[C@@H]1CN([C@@H](C)CO)C(=O)c2cc(C3=CCCCC3)cnc2O[C@H]1CN(C)C(=O)c1cccnc1,-4,-2
CCCNC(=O)Nc1ccc2c(c1)OC[C@H](C)N(C)C[C@H](C)[C@@H](OC)CN(C)C2=O,-2,-4

# Fetched by compound from the list above, two records:
SMILES,Vaccinia stage,Vaccinia stage Venus
Cc1noc(C)c1NC(=O)N(C)C[C@@H]1OCCCC[C@@H](C)Oc2ccc(NC(=O)Nc3ccc4c(c3)OCO4)cc2C(=O)N([C@@H](C)CO)C[C@H]1C,18,10
CN1C(=O)c2cc(NC(=O)C3CCCC3)ccc2OC[C@@H]2O[C@H](CC(=O)Nc3ccccc3)CC[C@@H]21,-13,-7

# Carrying on:
SMILES,Vaccinia stage,Vaccinia stage Venus
CC(C)C#Cc1ccc([C@H]2[C@@H](CO)N(C(=O)C3CCC3)[C@H]2C#N)cc1,6,-1
Cc1noc(C)c1NC(=O)Nc1cccc2c1O[C@H](CN(C)CC1CC1)[C@H](C)CN([C@H](C)CO)C2=O,2,13
CC(C)CC#Cc1ccc2c(c1)O[C@H](CN(C)Cc1ccc3c(c1)OCO3)[C@H](C)CN([C@H](C)CO)S2(=O)=O,?,/
CCCNC(=O)C[C@H]1CC[C@@H]2[C@@H](COc3ccc(NC(=O)Cc4ccccc4)cc3C(=O)N2C)O1,1,0
Cc1noc(C)c1NC(=O)Nc1cccc2c1O[C@@H](CN(C)CC1CC1)[C@H](C)CN([C@@H](C)CO)C2=O,6,6
C[C@H](CO)N1C[C@H](C)[C@H](CN(C)Cc2ccc(C(F)(F)F)cc2)Oc2ccc(NC(=O)C3CC3)cc2CC1=O,-9,-12
CCC(=O)N(C)C[C@@H]1Oc2ncc(C#CC(C)(C)O)cc2C(=O)N([C@@H](C)CO)C[C@H]1C,16,6
CC(=O)N1[C@@H]2c3ccc(C4=CCCC4)c(=O)n3C[C@H]1[C@H](CO)[C@H]2C(=O)N[C@@H](C)c1ccccc1,20,11
CCC(=O)N1C[C@H](C)[C@@H](OC)CN(C)C(=O)c2ccc(NS(C)(=O)=O)cc2OC[C@@H]1C,-1,4
C[C@@H]1CN([C@@H](C)CO)C(=O)c2cc(NS(C)(=O)=O)ccc2O[C@@H](C)CCCCO[C@@H]1CN(C)C(=O)c1ccccc1,10,2
C[C@H](CO)N1C[C@H](C)[C@@H](CN(C)CC2CCCCC2)Oc2ncc(C#C[C@@H](C)O)cc2C1=O,22,15
O=C(C[C@H]1C=C[C@@H](NC(=O)c2ccccc2)[C@H](CO)O1)Nc1ccc(-c2ccccc2)cc1,?,/
C[C@@H]1CN([C@H](C)CO)C(=O)Cc2cc(NC(=O)c3ccncc3)ccc2O[C@@H]1CN(C)Cc1ccc(-c2ccccc2)cc1,?,/
CC(C)(O)C#Cc1ccc([C@H]2[C@@H](CO)N3CCCCN(C(=O)c4ccc(F)cc4)C[C@@H]23)cc1,21,8
Cc1noc(C)c1NC(=O)Nc1ccc2c(c1)C(=O)N([C@H](C)CO)C[C@H](C)[C@H](CN(C)S(=O)(=O)c1c(C)noc1C)OCCCC[C@@H](C)O2,26,18
C[C@H](NC(=O)C[C@@H]1C=C[C@@H](NC(=O)CN2CCOCC2)[C@H](CO)O1)c1ccccc1,-6,-4
C[C@H]1CN([C@@H](C)CO)S(=O)(=O)c2ccc(-c3ccc(C#N)cc3)cc2O[C@H]1CN(C)C(=O)C1CC1,-1,1
CCCNC(=O)Nc1ccc2c(c1)OC[C@@H](C)N(C(=O)C1CCC1)C[C@H](C)[C@@H](OC)CN(C)C2=O,-3,1
C[C@H](CO)N1C[C@H](C)[C@H](CN(C)Cc2ccc(Cl)c(Cl)c2)OCCCC[C@H](C)Oc2ccc(NC(=O)Nc3ccccc3)cc2C1=O,-22,-13
CCCNC(=O)N1CC2(C1)CN(C(=O)CC)[C@H](CO)c1[nH]c3cc(OC)ccc3c12,13,13

# Profiles, quoted from the list. Screens in order: Vaccinia stage, Vaccinia stage Venus
# Cc1noc(C)c1NC(=O)Nc1ccc2c(c1)C(=O)N([C@H](C)CO)C[C@H](C)[C@H](CN(C)S(=O)(=O)c1c(C)noc1C)OCCCC[C@@H](C)O2 is listed as 26, 18
# O=C(C[C@H]1C=C[C@@H](NC(=O)c2ccccc2)[C@H](CO)O1)Nc1ccc(-c2ccccc2)cc1 is listed as ?, /
# C[C@H]1CN([C@@H](C)CO)S(=O)(=O)c2ccc(-c3ccc(C#N)cc3)cc2O[C@H]1CN(C)C(=O)C1CC1 is listed as -1, 1
# C[C@H](CO)N1C[C@H](C)[C@H](CN(C)Cc2ccc(Cl)c(Cl)c2)OCCCC[C@H](C)Oc2ccc(NC(=O)Nc3ccccc3)cc2C1=O is listed as -22, -13
# C[C@H](CO)N1C[C@H](C)[C@@H](CN(C)CC2CCCCC2)Oc2ncc(C#C[C@@H](C)O)cc2C1=O is listed as 22, 15

# The listing continues.
SMILES,Vaccinia stage,Vaccinia stage Venus
CC(=O)N[C@@H]1CC[C@@H](CCNC(=O)C2CCCC2)O[C@H]1CO,5,16
Cc1noc(C)c1NC(=O)Nc1cccc2c1O[C@@H](CN(C)C(=O)Nc1cccc3ccccc13)[C@@H](C)CN([C@H](C)CO)C2=O,2,11
CCC(=O)Nc1ccc2c(c1)OC[C@@H](C)N(C(=O)C1CC1)C[C@H](C)[C@@H](OC)CN(C)C2=O,12,15
COc1ccc(S(=O)(=O)Nc2ccc3c(c2)C(=O)N([C@@H](C)CO)C[C@H](C)[C@@H](CN(C)S(=O)(=O)c2ccc(F)cc2)OCCCC[C@H](C)O3)cc1,?,/
CCCNC(=O)N(C)C[C@@H]1Oc2ncc(-c3ccc(F)cc3)cc2C(=O)N([C@@H](C)CO)C[C@H]1C,28,13
COc1ccccc1NC(=O)N1CCCCN2[C@H](CO)[C@H](c3ccc(-c4ccccc4)cc3)[C@H]2C1,?,/
C[C@H]1CN([C@@H](C)CO)C(=O)c2cccc(NC(=O)CCCCCC(=O)Nc3ccccc3N)c2O[C@H]1CN(C)Cc1ccncc1,10,8
O=C(C[C@@H]1CC[C@H]2[C@@H](COC[C@@H](O)CN2Cc2cccc(F)c2)O1)NCC1CCCCC1,-26,-16
CCCC#Cc1ccc([C@H]2[C@@H](CO)N3CCCCN(S(C)(=O)=O)C[C@H]23)cc1,?,/
O=C(c1ccccc1)N1C[C@H]2[C@@H](c3ccccc31)[C@@H](CO)N2C(=O)c1cccc(F)c1,2,17

# A second format for some results above:
# Each structure is followed by: Vaccinia stage, Vaccinia stage Venus
O=C(C[C@@H]1CC[C@H]2[C@@H](COC[C@@H](O)CN2Cc2cccc(F)c2)O1)NCC1CCCCC1
    -26, -16
CCCC#Cc1ccc([C@H]2[C@@H](CO)N3CCCCN(S(C)(=O)=O)C[C@H]23)cc1
    ?, /

# (next part)
SMILES,Vaccinia stage,Vaccinia stage Venus
C[C@H]1CN([C@@H](C)CO)C(=O)c2cc(-c3ccccc3F)cnc2O[C@@H]1CN(C)C(=O)c1cnccn1,20,6
C[C@H](CO)N1C[C@H](C)[C@H](CN(C)S(C)(=O)=O)Oc2ccc(NC(=O)Cc3cn(C)c4ccccc34)cc2CC1=O,21,13
CCCNC(=O)Nc1ccc2c(c1)C(=O)N(C)C[C@@H](OC)[C@H](C)CN(C(=O)C1CCCC1)[C@H](C)CO2,-3,2
C[C@@H]1CN([C@@H](C)CO)S(=O)(=O)c2ccc(/C=C/c3ccccc3)cc2O[C@@H]1CN(C)C(=O)c1cccnc1,-5,-3
CCCNC(=O)Nc1ccc2c(c1)C(=O)N(C)[C@H]1CC[C@H](CC(=O)Nc3ccccc3F)O[C@@H]1CO2,23,18
C[C@@H]1CN([C@@H](C)CO)C(=O)Cc2cc(NC(=O)Nc3ccccc3)ccc2O[C@H]1CN(C)S(C)(=O)=O,13,7
O=C(C[C@@H]1CC[C@H]2[C@@H](COC[C@@H](O)CN2C(=O)c2ccccc2F)O1)N1CCOCC1,-4,4
COc1cccc(CN2[C@H](CO)[C@@H]3c4ccccc4N(C(=O)C4CC4)C[C@@H]32)c1,0,2
CCNC(=O)C[C@@H]1CC[C@@H]2[C@H](COc3ccc(NC(=O)Nc4ccccc4C)cc3C(=O)N2C)O1,11,8
Cc1ccc(S(=O)(=O)N(C)C[C@@H]2Oc3ncc(C#CCC(C)C)cc3C(=O)N([C@H](C)CO)C[C@@H]2C)cc1,-31,-25

# A few values from the entries so far.
# `CCCNC(=O)Nc1ccc2c(c1)C(=O)N(C)[C@H]1CC[C@H](CC(=O)Nc3ccccc3F)O[C@@H]1CO2` in Vaccinia stage = 23
# `Cc1ccc(S(=O)(=O)N(C)C[C@@H]2Oc3ncc(C#CCC(C)C)cc3C(=O)N([C@H](C)CO)C[C@@H]2C)cc1` in Vaccinia stage = -31

# Next part:
SMILES,Vaccinia stage,Vaccinia stage Venus
Cc1ccc(OC(=O)N(C)C[C@H]2OCc3ccccc3-c3c(n(C)c4ccccc34)C(=O)N([C@@H](C)CO)C[C@@H]2C)cc1,-32,-25
C[C@@H]1CN([C@H](C)CO)C(=O)CCCn2cc(nn2)CO[C@H]1CN(C)S(=O)(=O)c1ccccc1F,5&10,3&11
C[C@@H]1CN([C@H](C)CO)C(=O)Cc2cc(NC(=O)NC3CCCCC3)ccc2O[C@H]1CN(C)Cc1ccccc1,-20,-17
COc1ccc(CN(C)C[C@@H]2Oc3ccc(NC(=O)Cc4ccccc4)cc3C(=O)N([C@@H](C)CO)C[C@@H]2C)cc1,0,-4
CC(C)NC(=O)Nc1ccc2c(c1)CC(=O)N([C@@H](C)CO)C[C@H](C)[C@H](CN(C)Cc1ccc(C(F)(F)F)cc1)O2,?,/
CC(C)c1cn(CC[C@H]2CC[C@@H](NC(=O)C3CC3)[C@@H](CO)O2)nn1,7,4

# Source: PubChem BioAssay

# A portion of the library (hit frequency here may not be typical).
